# HCMV UL50-53 inh – inhibitors of HCMV UL50-UL53 interaction, biochemical, HTRF | HCMV UL50-UL53 nuclear egress complex (human cytomegalovirus) | normalized percent inhibition | inhibition, % (test concentration not listed) | 190,000 tested, 0.15% active;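 active = both replicates at 50% or more, plus weaker picks with an unusually low signal ratio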;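 note: stock transfer was 100 nL into about 20 µL; 0% = negative control wells and 100% = wells with untagged competitor protein; inactives centre near -12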
# Sa growth 42C – S. aureus growth inhibition at 42 and 30 °C, primary screen, LtaS inhibitor project, RN4220, two temperatures | OD600, 20 h, 42 °C; hits give low values | relative growth, % (test concentration not listed) | 170,000 tested, 0.53% active | AID 720641, 2013;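 active = growth at 42 °C up to 50% and 20 or more points under that at 30 °C, or under 10% at both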;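 note: 300 nL library stock went into each well; scaled to the means of positive and negative controls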
# GIV Gai3 FP – inhibitors of GIV peptide binding to Galpha-i3, primary screen, biochemical, fluorescence polarization, FITC-GIV GBA peptide, rat Galphai3; 210,000 tested, 0.42% active; 90 min; hits give low values; scaled: aluminum fluoride 0%, vehicle 100%; AID 1224905, 2016; percent of control (FP), % (no concentration beside the values);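 active = replicate mean at 85% of control or lower, very high polarization wells dropped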;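 note: wells of about 15 µL received 100 nL stock; the first replicate is given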
# Target sequence (P08753 whole entry, looked up): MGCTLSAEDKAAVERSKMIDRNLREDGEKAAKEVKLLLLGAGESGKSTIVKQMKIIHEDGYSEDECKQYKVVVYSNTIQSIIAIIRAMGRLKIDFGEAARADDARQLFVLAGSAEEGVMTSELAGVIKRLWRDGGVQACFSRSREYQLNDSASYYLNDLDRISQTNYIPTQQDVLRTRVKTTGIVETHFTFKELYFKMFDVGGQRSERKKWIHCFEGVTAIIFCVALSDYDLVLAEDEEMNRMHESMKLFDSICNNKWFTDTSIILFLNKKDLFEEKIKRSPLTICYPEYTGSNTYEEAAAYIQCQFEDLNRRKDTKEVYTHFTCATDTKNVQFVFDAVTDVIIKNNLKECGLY
# Sa growth 42C second temp – recorded beside Sa growth 42C, whose call it bears; relative growth, %; measured here: growth at 30 °C;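 optical density after 20 h as mean of two plates; 100% = untreated growth and lower means inhibition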
# Starred values were filed as active, the others as inactive; · = not tested or not shown; & = joins results of further samples.
# Keys: A = HCMV UL50-53 inh; B = Sa growth 42C; C = Sa growth 42C second temp; D = GIV Gai3 FP
1. Cc1cccc(N2CCN(C(=O)CCCCCn3c(=S)[nH]c4ccc(N5CCOCC5)cc4c3=O)CC2)c1C
  A = 2 | B = 106 | C = 98 | D = 107

2. COc1ccc(C2CC(=O)N(c3ccc(OC)c(OC)c3)C(=O)C2)cc1OC
  A = -15 | B = · | C = · | D = 94

3. Cc1ccc(CN2CCN(CC(=O)Nc3ccc(C)cn3)C(=O)C2=O)cc1
  A = -7 | B = · | C = · | D = 107

4. O=C(CSc1ncnc2nc(N3CCSCC3)sc12)N1CCc2ccccc2C1
  A = -3 | B = · | C = · | D = 98

5. Clc1ccc(CO/N=C/c2cccs2)cc1
  A = -66 | B = 95 | C = 89 | D = 100

6. O=C1OC(c2ccc(Cl)cc2)=N/C1=C\c1ccccc1
  A = · | B = 95 | C = 96 | D = 101

7. CCCNC(=O)Cc1c(C)nc2nc(CC)nn2c1C
  A = -6 | B = · | C = · | D = 98

8. Cc1oc2ncnc(N3CCCC(C(=O)N4CCC(C(N)=O)CC4)C3)c2c1C (stereo unspecified)
  A = -27 | B = · | C = · | D = 103

9. CC(C)NC(=O)Cn1c(=O)n(CC2CCC(C(=O)N3CCCCC3)CC2)c(=O)c2sccc21 (stereo unspecified)
  A = -12 | B = · | C = · | D = 105

10. N#CC(C#N)=CNCCc1ccc(Cl)cc1
  A = -9 | B = 99 | C = 91 | D = 105

11. COc1cccc(NC(=O)C2CCCN(c3nnc(-n4c(C)ccc4C)s3)C2)c1 (stereo unspecified)
  A = -17 | B = 98 | C = 73 | D = 95

12. CCCNC(=O)c1cc(-c2ccco2)on1
  A = · | B = 82 | C = 81 | D = 101

13. CN(C)CCN(C(=O)c1ccc(Br)cc1)c1nc2ccc(Cl)cc2s1
  A = · | B = 133 | C = 103 | D = 106

14. C=C1Cn2c(nc3sc4c(c3c2=O)CCCC4)S1
  A = -10 | B = 108 | C = 93 | D = 100

15. O=C(c1ccccc1)c1cccs1
  A = 1 | B = 92 | C = 96 | D = 103

16. Cc1ccc2c(C)nc(Nc3nc(CSc4nnc(C)s4)cc(=O)[nH]3)nc2c1
  A = -5 | B = 103 | C = 89 | D = 109

17. CN(C1CCCCC1)S(=O)(=O)c1ccccc1N=Cc1c(O)n(C)c(=O)n(C)c1=O
  A = -16 | B = 81 | C = 84 | D = ·

18. CCC(=O)N1CCCc2cc(S(=O)(=O)N3CCC(C(=O)NC4CCCCC4)CC3)ccc21
  A = · | B = 111 | C = 99 | D = 106

19. COc1ccc2ccc(OC)c(/C=C3\NC(=S)N(C)C3=O)c2c1
  A = · | B = 89 | C = 82 | D = 115

20. Cc1ccc(CNC(=O)C2CC(=O)N(CCC(C)C)C2)cc1 (stereo unspecified)
  A = · | B = 111 | C = 84 | D = 98

21. Nc1nnc(SCC(=O)Nc2ccc(F)cc2)n1CC(=O)Nc1ccc(F)cc1
  A = 2 | B = 101 | C = 96 | D = 99

22. Cc1nn(-c2ccccc2)c2c1N(CC(=O)N1CCN(c3ccc(F)cc3)CC1)C(=O)CS2
  A = · | B = 112 | C = 85 | D = 100

23. CC(=O)OC1CCC(C(=O)O)CC1 (stereo unspecified)
  A = · | B = 86 | C = 92 | D = 98

24. COc1cccc(-c2noc(-c3cccnc3)n2)c1
  A = 12 | B = 98 | C = 62 | D = 103&99

25. O=C1CC(c2nc3ccccc3n2Cc2cccnc2)CN1c1cccc(Cl)c1 (stereo unspecified)
  A = -3 | B = · | C = · | D = 98

# Molecules shown so far containing a thiophene ring, fused or not (4):
# Keys: A = HCMV UL50-53 inh; B = Sa growth 42C; C = Sa growth 42C second temp; D = GIV Gai3 FP
5. Clc1ccc(CO/N=C/c2cccs2)cc1
  A = -66 | B = 95 | C = 89 | D = 100

9. CC(C)NC(=O)Cn1c(=O)n(CC2CCC(C(=O)N3CCCCC3)CC2)c(=O)c2sccc21 (stereo unspecified)
  A = -12 | B = · | C = · | D = 105

14. C=C1Cn2c(nc3sc4c(c3c2=O)CCCC4)S1
  A = -10 | B = 108 | C = 93 | D = 100

15. O=C(c1ccccc1)c1cccs1
  A = 1 | B = 92 | C = 96 | D = 103

# More records.
# Keys: A = HCMV UL50-53 inh; B = Sa growth 42C; C = Sa growth 42C second temp; D = GIV Gai3 FP
26. CCOC(=O)c1c(Nc2cccc(O)c2)nnc(-c2ccccc2)c1-c1ccccc1
  A = -28 | B = 68 | C = 60 | D = 107

27. Cc1cccc(-c2noc(Cn3nc(-c4ccccc4)ccc3=O)n2)c1
  A = 8 | B = · | C = · | D = 106

28. C=CCNc1nc(OC(C(F)(F)F)C(F)(F)F)nc(N2CCCCC2)n1
  A = -16 | B = · | C = · | D = 100

29. CC1CCc2c(sc(NC(=O)CCCOc3ccccc3)c2C(N)=O)C1 (stereo unspecified)
  A = -32 | B = 92 | C = 87 | D = 107

30. CCc1ccc2oc(C(=O)NCc3ccncc3)cc(=O)c2c1
  A = -40 | B = 97 | C = 80 | D = 100

31. O=C(c1cnn2ccccc12)N1CCCc2ccccc21
  A = · | B = 108 | C = 96 | D = 103

32. COc1ccc(OC)c(NS(=O)(=O)c2ccc(N3CCCCS3(=O)=O)cc2)c1
  A = -17 | B = 79 | C = 81 | D = 104&105

33. Cn1cnc2cc(NC(=O)COc3ccccc3)ccc21
  A = 0 | B = 87 | C = 84 | D = 102

34. COc1ccc2c(c1)CCC/C2=N\NC(N)=S
  A = 2 | B = 107 | C = 95 | D = 106

35. CCc1c(C)c(C#N)c2nc3ccccc3n2c1Nc1ccncc1
  A = · | B = 100 | C = 88 | D = 112

36. CC(=O)Nc1cc(-c2nc(Cn3c(=O)oc4ccccc43)no2)ccc1C
  A = -10 | B = · | C = · | D = 110

37. CC(=O)Nc1ccc(NC(=O)Nc2cccs2)cc1
  A = -24 | B = 82 | C = 85 | D = 101

38. CCn1c(SCC(=O)Nc2ccccc2OC)nc2c([nH]c3ccccc32)c1=O
  A = -12 | B = 110 | C = 85 | D = 106

39. Oc1c(Cl)cc(Cl)cc1/C=N/c1nccs1
  A = -6 | B = 92 | C = 36 | D = 106

40. O=C(c1ccccc1)N1CCN(C(=O)C2(c3ccccc3)CC2)CC1
  A = -20 | B = 82 | C = 84 | D = ·

41. Cn1c(SCc2cc(=O)n3cc(Br)ccc3n2)nnc1-c1ccco1
  A = -88 | B = 107 | C = 91 | D = ·

42. CCN(CC(=O)Nc1ccc(SC(F)F)cc1)CC1COc2ccccc2O1 (stereo unspecified)
  A = -2 | B = 114 | C = 89 | D = ·

43. Cc1nn(-c2ccccc2)c2c1C(O)n1c(nc3ccccc31)S2 (stereo unspecified)
  A = -34 | B = 78 | C = 88 | D = ·

44. COc1cc2c(C(=O)N3CCN(C)CC3)c(C)oc2cc1Br
  A = -6 | B = 107 | C = 81 | D = 99

45. Oc1c(C=Nc2ccc(Br)cc2)sc2ccccc12
  A = 6 | B = 86 | C = 99 | D = ·

46. COc1ccccc1-c1c(C)nn2c(SCC(=O)NCCc3ccc(Cl)cc3)cc(C)nc12
  A = 7 | B = · | C = · | D = 99

47. Nc1nc(OCC2CCCCC2)c2[nH]cnc2n1
  A = -13 | B = · | C = · | D = 95

48. Cc1cc(F)ccc1NC(=O)Cn1cc(S(=O)(=O)NC(C)C)c(S(=O)(=O)NC(C)C)c1
  A = · | B = 116 | C = 83 | D = 109

49. CC(C)OCCCn1c(=O)c2ccccc2n2c(-c3ccc(F)c(F)c3)nnc12
  A = -8 | B = 100 | C = 83 | D = 97

50. Cc1cc(NC(=O)c2ccc3c(c2)NC(=O)c2ccccc2S3)no1
  A = 7 | B = 90 | C = 69 | D = 104

# Molecules listed so far containing an NH in an aromatic ring, in the order listed:
# Keys: A = HCMV UL50-53 inh; B = Sa growth 42C; C = Sa growth 42C second temp; D = GIV Gai3 FP
1. Cc1cccc(N2CCN(C(=O)CCCCCn3c(=S)[nH]c4ccc(N5CCOCC5)cc4c3=O)CC2)c1C
  A = 2 | B = 106 | C = 98 | D = 107

16. Cc1ccc2c(C)nc(Nc3nc(CSc4nnc(C)s4)cc(=O)[nH]3)nc2c1
  A = -5 | B = 103 | C = 89 | D = 109

38. CCn1c(SCC(=O)Nc2ccccc2OC)nc2c([nH]c3ccccc32)c1=O
  A = -12 | B = 110 | C = 85 | D = 106

47. Nc1nc(OCC2CCCCC2)c2[nH]cnc2n1
  A = -13 | B = · | C = · | D = 95

# Compound profiles (already shown).
# Shown for CC1CCc2c(sc(NC(=O)CCCOc3ccccc3)c2C(N)=O)C1 (stereo unspecified) = HCMV UL50-53 inh: -32; Sa growth 42C: 92; Sa growth 42C second temp: 87; GIV Gai3 FP: 107
# Shown for Cn1c(SCc2cc(=O)n3cc(Br)ccc3n2)nnc1-c1ccco1 = HCMV UL50-53 inh: -88; Sa growth 42C: 107; Sa growth 42C second temp: 91; GIV Gai3 FP: ·

# Remaining list, next part:
# Keys: A = HCMV UL50-53 inh; B = Sa growth 42C; C = Sa growth 42C second temp; D = GIV Gai3 FP
51. COCc1cc(C)n(CC(=O)N2CCC(C)CC2)c(=O)c1C#N
  A = -20 | B = 93 | C = 86 | D = 102

52. CCn1c(C(=O)O)c(S(=O)(=O)c2ccc(Cl)cc2)c2ccccc21
  A = 5 | B = 94 | C = 97 | D = 102

53. COc1ccccc1CNC(=O)c1cnc(N2CCCC2)nc1C
  A = · | B = 112 | C = 99 | D = 109

54. CC1=CC(=O)C(N(CCO)CCO)=CC1=O
  A = -29 | B = 74 | C = 73 | D = ·

55. CCc1ccc2c(c1)C1(NN=C(c3ccccc3)S1)C(=O)N2 (stereo unspecified)
  A = -33 | B = 64 | C = 28 | D = 97

56. O=C(Nc1ccc(I)cc1)c1sc2cc(Cl)ccc2c1Cl
  A = -4 | B = · | C = · | D = 104

# Source: PubChem BioAssay
